High-throughput results from PubChem BioAssay.
Vaccinia Venus – inhibitors of vaccinia virus (Venus reporter); Vaccinia virus Venus reporter expression, fluorescence; AID 720580; Potency, µM (doses to about 36.5 µM), without a hit: at the highest dose activity change, negative = inhibition, actives largely listed as inhibitors; 0.46% of 330,000 active; active means well fitted inhibition curve with a large enough effect; inconclusive means small, poorly fitted or top-dose-only effect; inactive means no such curve, though single readings can be large or run the other way; tested in A549 cells; also: nearly all actives have a fitted effect of over 30% in size; inactives centre near -10
Vaccinia mCherry – inhibitors of vaccinia virus infection (mCherry reporter signal); Vaccinia virus mCherry reporter infection, fluorescence; about a quarter of the inactives have no number; Potency, µM (titrated, usually from 36.5 µM), inactives show at the highest dose activity change, negative = inhibition, usual class: inhibitors; 0.63% of 310,000 active; AID 720579; active = well fitted inhibition curve with a large enough effect; inconclusive = small, poorly fitted or top-dose-only effect; inactive = no such curve, though single readings can be large or run the other way; tested in A549 cells; also: nearly all actives have a fitted effect of over 35% in size; inactives centre near -10
Numbers without * were called inactive; i = inactive; ? = inconclusive; / = no result given; & = joins results of further samples. % is scaled to controls: 0 for no effect and ±100 for the full control effect; potency is read from the fitted curve at half-maximal effect.

Molecule	Vaccinia Venus	Vaccinia mCherry
O=C(NC1CC(=O)c2sccc21)c1ccc(Cl)cc1Cl (configuration not stated)	3.1%	-32.2%
COc1ccc(Cl)cc1NC(=O)CC(=O)Nc1cc(Cl)ccc1OC	-23.3%	-10.1%
O=C(COC(=O)C1CCCCC1)Nc1ccc([N+](=O)[O-])cc1	-8.4%	i
O=c1nc2ccccc2c2n1CC(CN1CCN(c3ccccc3)CC1)N2 (configuration not stated)	-16.6%	i
COc1cc(C(=O)Nc2ccc3c(c2)N(C(=O)CCN(C)C)c2ccccc2CC3)cc(OC)c1OC	-7.0%	-0.2%
COC(=O)c1ccc([C@H]2C=C(C(=O)O)O[C@@H](OCc3ccc(CO)cc3)C2)cc1	-13.2%	i
COc1ccc2nc(SCC(=O)NC3(C#N)CCCCC3)[nH]c2c1	-11.5%	i
O=C(Cn1c(=O)oc2ccccc21)N1CCCCC1	3.5%	-7.7%
CCCCNc1ccc(-c2nc(-c3ccccc3)no2)cc1[N+](=O)[O-]	4.0%	-6.2%
Cc1cccc(NC(=O)Cn2c(=O)oc3ccccc32)c1	-15.6%	i
Cc1ccccc1C1(CC(=O)N2CCN(C)CC2)CC(=O)N(Cc2ccncc2)C1=O (configuration not stated)	-3.5%	-10.1%
CCO[C@@H]1OC(C(=O)NCc2ccccc2)=C[C@H](c2ccccc2)[C@H]1CCCO	-19.9%	-0.8%
CC1C(C)N(C(=O)CCCl)c2ccccc2N1C(=O)CCCl (configuration not stated)	?	?
C=CCCOc1ccccc1C(N)=O	0.7%	-1.0%
COc1ccc(-c2nc(C#N)c(NCC3CCCO3)o2)cc1 (configuration not stated)	-2.4%	?
NC(=O)C1(NC2CCCCC2)CCN(Cc2ccccc2)CC1	-3.5%	-8.8%
O=C(Nc1cccnc1)c1cc(-c2ccc(Cl)c(Cl)c2)on1	-2.7%	i
Cc1cccc(C)c1NC(=O)C1c2ccccc2OCC(=O)N1Cc1ccc2c(c1)OCO2 (configuration not stated)	-6.2%	28.1%
C#CCOCCOCCOCCNc1nc(N2CCN(C(=O)[C@H](CCCCN)n3cc(C(N)[C@H](C)CC)nn3)CC2)nc(N2CCN(C(=O)[C@H](CCC(=O)O)n3cc(C(N)[C@H](C)CC)nn3)CC2)n1 (some centres not stated)	-0.7%	i
Cc1cc(S(=O)(=O)Nc2ncnc3sccc23)ccc1F	-14.8%	-1.1%
Cc1cc(C(=O)Nc2c(C)cccc2C)n(-c2ccccc2)n1	-9.9%&-7.7%	-8.9%&-10.4%
Cc1cc(C)cc(N(C(=O)c2ccccn2)C(C(=O)NC2CCCCC2)c2ccncc2)c1 (configuration not stated)	-12.0%	-1.7%
CCN(CC)C(=O)c1sc2[nH]c(=S)n(-c3ccccc3)c(=O)c2c1C	-7.3%	-12.7%
CCCN1CNc2c(c(=O)[nH]c(=S)n2CCc2cccc(Cl)c2)C1	-5.9%	-9.8%
CCOc1ccc2oc(=O)cc(CN3CCN(C(=O)c4cccc(F)c4)CC3)c2c1	-4.7%	-7.7%
COc1ccc([N+](=O)[O-])c(O)c1C(C)=O	-2.5%	i
CCC(CC)C(=O)Nc1c(C(=O)N2CCN(c3ccccc3F)CC2)oc2ccccc12	-9.3%	-16.5%
O=C(Nc1cccc(C(=O)N2CCN(c3ccccc3)CC2)c1)c1nsc2ccccc12	-16.6%	-16.0%
CCCc1ccc(S(=O)(=O)N2CCN(C(=O)c3cc(C)on3)CC2)cc1	-24.1%	-9.9%
CC(C)(C)SCCNS(=O)(=O)c1ccc(C#N)cc1	-7.4%	i
CSc1nc(N)c2cn[nH]c2n1	-11.3%	-14.1%
CCCCNC(=S)N(Cc1c(C)noc1C)c1ccccc1	-16.0%	-14.8%
COCCNC(=O)NC(=O)COC(=O)c1ccc2[nH]c3c(c2c1)CCCC3	-29.9%	-11.9%
O=C(CSc1nc2c(oc3ccccc32)c(=O)n1-c1ccccc1)Nc1ccccc1F	-12.6%	-16.3%
O=C(NCc1ccc(F)cc1)C1CCCN(S(=O)(=O)c2cccc3nsnc23)C1 (configuration not stated)	-6.0%	-27.8%
CC1CCCN(C(=O)CSCC(=O)Nc2nc(-c3cccs3)cs2)C1 (configuration not stated)	?	?
NS(=O)(=O)CCCc1ccccc1	-8.2%	i
CC(=NCCCN(C)C)C1=C(O)c2ccccc2C1=O	-1.0%	-4.4%
COc1ccc(N2C(=O)[C@H]3CCC=C[C@H]3[C@@H]2c2ccccc2Br)cc1	-5.5%	i
Cc1c(/C=N/NC(=O)c2cccnc2)c2ccccc2n1Cc1ccccc1	-20.6%	-21.2%
CNc1nc(-c2ccc(OC)cc2)c(-c2ccc(OC)cc2)s1	-10.5%	?
O=C(N/N=C\c1cccc([N+](=O)[O-])c1O)C1COc2ccccc2O1 (configuration not stated)	-20.3%	i
Cc1cc(C)nc(SCc2cc(=O)c(OC(=O)c3ccc(S(=O)(=O)N(C)C)cc3)co2)n1	-12.2%	-15.7%
CC1CC(=O)c2cn3c(nc2C1)nc1ccccc13 (configuration not stated)	-1.4%	-6.4%
Cc1cc(C(=O)OCC(=O)Nc2c(F)cccc2F)c(C)n1C1CC1	-6.4%	-10.8%
CSc1ccc(-c2cccc3nncn23)cc1	-9.4%	i
Fc1ccc(-c2nc3ccccc3c3nc4ccccc4n23)cc1	-3.3%	-13.5%
CC(C)c1ccc(-c2nn(-c3ccccc3)cc2C(=O)NCC2CCCO2)cc1 (configuration not stated)	-11.6%	-14.3%
Clc1ccc(CN2CCNCC2)cc1	-8.6%	i
Cc1cc(C)c(S(=O)(=O)NCC2CCC(C(=O)NCc3ccccn3)CC2)c(C)c1 (configuration not stated)	4.9%	-1.8%
O=C(NCc1ccco1)C(c1cccnc1)N(C(=O)Cn1nnc2ccccc21)c1ccc(F)cc1 (configuration not stated)	-1.7%	/
N#Cc1ccc(CSc2ncnc3c2cnn3Cc2ccccc2)cc1	-5.5%	-11.3%
CN(CCC#N)S(=O)(=O)c1ccc2c(c1)c(=O)n(C)c(=O)n2C	-5.1%	i
CCCCCCn1c(N(CC)CC)nc2c1c(=O)[nH]c(=O)n2C	?	-42.5%
NC(=O)c1nc(-c2ccco2)nc2c1[nH]c(=O)n2-c1ccc(Cl)c(Cl)c1	-15.8%	i
O=C(Nc1ccc2c(c1)OCCO2)c1cccc(Br)c1	-3.6%	i
O=C(CCCCCN1C(=O)c2ccccc2C1=O)Nc1ccccc1F	-12.1%	i
CCn1nc(C(=O)Nc2ccc(Cl)c(S(=O)(=O)N3CCOCC3)c2)c2ccccc2c1=O	-14.0%	i
Cc1ccc(C)c(NC(=S)N2CCC(NC(=O)c3ccc(F)cc3)CC2)c1	-4.4%	-1.1%
O=C(c1ccc(Cl)cc1Cl)N1CCc2ccccc21	-12.4%	-9.2%

The list continues:
Molecule	Vaccinia Venus	Vaccinia mCherry
COC(=O)c1ccc(/C=N/NC(=O)CNc2cccc(C)c2)cc1	-1.4%	-0.6%
COc1ccc(S(N)(=O)=O)cc1C(=O)N1CCCC1	-0.4%	2.7%
Cc1ccc(-c2noc(CSc3nnc(-c4ccccc4)n3C)n2)cc1	-23.0%	-3.2%
Cc1ccc(NC(=O)N2Cc3ccccc3CC2C(=O)NC(C)(C)C)cc1 (configuration not stated)	-5.6%	-9.7%
COc1ccc(Cl)cc1NC(=O)CSc1nnc(CNC(=O)c2cccs2)o1	-11.2%	i
O=C(CSc1ccccc1)Nc1ccc(S(=O)(=O)NCC2CCCO2)cc1 (configuration not stated)	-11.9%	i
CN(C)C(=O)c1ccc(-c2nc(NCc3cccnc3)c3ccccc3n2)cc1	-18.9%	-19.3%
CCn1c(SCC(=O)N(C)CC(=O)Nc2cccc(OC)c2)nnc1-c1ccco1	-18.2%	-22.8%
C[C@@H](CC#N)CN1CC[C@H](C(C)(C)C)CCC1=O	-4.3%&-7.1%	i
Cn1c(=O)c(=O)n(C)c2cc(S(=O)(=O)N3CCN(c4ccccc4F)CC3)ccc21	-17.8%&0.6%	-20.2%&-1.5%
O=S(=O)(CC(O)COc1ccccc1Cl)c1ccccc1 (configuration not stated)	-15.7%	/
Oc1cc(O)cc(/C=C/c2ccc(O)cc2O)c1	-13.1%	i
CCCCC(=O)N1CCc2cc(OC)c(OC)cc2C1COc1ccc(C(=O)OCC)cc1 (configuration not stated)	8.1%	9.3%
CCN(CC)S(=O)(=O)c1ccc(C(C)NC(=O)Cc2c[nH]c3ccccc23)cc1 (configuration not stated)	-9.5%	-1.3%
Cc1cnc(C(=O)Nc2c(-c3ccccc3)[nH][nH]c2=O)cn1	-12.5%	-15.6%
Cc1cc(=O)n2c(n1)NC(=NCc1ccccc1)NC2c1ccccc1 (configuration not stated)	-7.0%	8.9%
CCCC(=O)Nc1nnc(SCC(=O)Nc2nc(C)cs2)s1	-4.1%	-4.6%
CCC(C)[C@@H](N)C(=O)N/N=C/c1cccc2nccnc12 (some centres not stated)	-14.8%	-18.5%
COc1ccc(CN(C(=O)c2ccc(C)cc2)c2cccc(N)c2)cc1	-16.4%	-20.2%
COc1ccccc1CCC(=O)Nc1ccc2c(c1)c(=O)n(C)n2C	-8.3%	10.2%
Cc1cccc(NCC(=O)c2c(N)n(C)c(=O)n(C)c2=O)c1C	-8.4%	i
Nc1cc(N)c2c(c1)C(=O)c1ccccc1-2	-2.7%	-27.4%
Cc1ccc(-n2c(=S)[nH]c3ccccc3c2=O)cc1F	-23.7%	i
CCOC(=O)c1ccc(NC(=O)c2nc[nH]c2C(=O)NC[C@H](C)O)cc1	-21.7%	?
COc1cc(O)c(C(CCN2CCCCC2)c2ccc3c(c2)OCO3)c(OC)c1 (configuration not stated)	?	-3.2%
N=c1n(CCO)c2ccccc2n1CCN1CCCCC1	0.5%	2.0%
CCN(CC)c1ccc(C(=O)N2CCC(c3ccncc3)CC2)cc1	-19.3%	-9.5%
CN(C)c1ccc(CNC(=O)c2cnc3sc(N4CCCC4)nn3c2=O)cc1	-9.4%	-13.5%
COc1cccc(S(=O)(=O)Nc2cccnc2)c1	0.5%	i
NCC(O)c1cc(O)c(O)cc1F (configuration not stated)	-11.0%	i
COC(=O)C1=C(c2cc3ccccc3o2)C[C@@H]2CC[C@H]1N2C(=O)NCCCOC(C)C	-13.2%	i
COC(=O)c1ccccc1NC(=O)c1cncc(Br)c1	-2.1%	i
CNC1=C(N(C(C)=O)c2ccc(Br)cc2)C(=O)c2ccccc2C1=O	5.62µM*	?
Cc1c(C)n(Cc2ccccc2)c2ccc(C(=O)N3CCN(c4ccc(F)cc4)CC3)cc12	-14.1%	-8.8%
O=C1NCCN(CC2CCN(CCC3CCCC3)CC2)C1=O	-11.2%	i
Cc1nccnc1Sc1ccccc1	-7.3%	-11.6%
CN(Cc1cccnc1)C(=O)c1cc(COc2ccc3ncccc3c2)on1	-21.5%	-24.2%
COc1cccc(-c2ncn(CCc3ccccc3OC)c2C(C)C)c1	-13.2%	i
Cc1ccc(CNC(=O)c2ccccc2NC(=O)CN2CCN(C)CC2)cc1	-20.7%	i
COc1ccc2c(c1)c1c(c(=O)n(Cc3ccccc3)c(=O)n1CC(=O)Nc1c(C)cccc1C)n2C	1.3%	-4.2%
CCC[C@H]1CN(c2ccccc2)C(=O)[C@@H]1CC(=O)Nc1ccccc1	-10.3%	3.3%
Cc1ccc(N(C(=O)c2csnn2)C(C(=O)NC2CCCC2)c2cccnc2)c(C)c1 (configuration not stated)	-15.6%	-9.5%
COC(=O)c1ccc(C2/C(=C(\O)c3ccc4c(c3)OCCO4)C(=O)C(=O)N2CCCN(C)C)cc1 (configuration not stated)	-1.9%	0.4%
Cc1cc(OCC(=O)N2CCc3ccccc3C2)c2c(-c3ccccc3)cc(=O)oc2c1	?	-20.4%
Cn1c(Sc2ccc(C(=O)O)cc2[N+](=O)[O-])nnc1-c1ccccc1	3.1%	i
Cc1cc(N2CCN(C)CC2)nc(=S)[nH]1	-8.4%	-9.3%
COc1ccc(NC(=O)C2(C)Cc3c(-c4ccc(C(N)=O)cc4)ccnc3O2)cn1 (configuration not stated)	-24.2%	?

Rewritten with values under each structure: entries from further up.
Under each structure: Vaccinia Venus, Vaccinia mCherry
O=C1NCCN(CC2CCN(CCC3CCCC3)CC2)C1=O
 : -11.2%, i
Cc1nccnc1Sc1ccccc1
 : -7.3%, -11.6%

Structures from the list above with a furan ring, fused or not:
Molecule	Vaccinia Venus	Vaccinia mCherry
CCC(CC)C(=O)Nc1c(C(=O)N2CCN(c3ccccc3F)CC2)oc2ccccc12	-9.3%	-16.5%
O=C(CSc1nc2c(oc3ccccc32)c(=O)n1-c1ccccc1)Nc1ccccc1F	-12.6%	-16.3%
O=C(NCc1ccco1)C(c1cccnc1)N(C(=O)Cn1nnc2ccccc21)c1ccc(F)cc1 (configuration not stated)	-1.7%	/
NC(=O)c1nc(-c2ccco2)nc2c1[nH]c(=O)n2-c1ccc(Cl)c(Cl)c1	-15.8%	i
CCn1c(SCC(=O)N(C)CC(=O)Nc2cccc(OC)c2)nnc1-c1ccco1	-18.2%	-22.8%
COC(=O)C1=C(c2cc3ccccc3o2)C[C@@H]2CC[C@H]1N2C(=O)NCCCOC(C)C	-13.2%	i
